CDC25B CDK2 inh – primary biochemical HTRF screen for blockers of M-phase inducer phosphatase 2 binding to CDK2/cyclin A; P30305+P24941; hit rate 0.72% among 94,000; AID 1259370, 2018; z-score (no concentration beside the values); HTRF CDC25B-CDK2/CyclinA binding, anti-His/anti-Flag; active compounds read high;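 note: score is relative to mean and SD of negative controls; strong numbers were not always called active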
TAR Tat displ – TAR RNA-Tat peptide displacers, HIV-1, primary screen, biochemical, FRET, FAM/TAMRA-labeled Tat. hit rate 0.6% among 100,000. z-score (test concentration not listed). HIV-1 TAR RNA, Tat peptide displacement FRET; active compounds read high;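 note: score is relative to mean and SD of negative controls; some compounds called inactive have numbers as strong as hits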
Active calls of the source: *; / = no result given.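 Rule for the calls: active = z-score from 3 up in half or more of its runs; inactive = the rest.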

SMILES	CDC25B CDK2 inh	TAR Tat displ
Cc1ccc(C2C3=C(CC(c4ccc(Cl)cc4)CC3=O)Nc3ncnn32)cc1 (stereo not drawn)	-0.9	-0.44
S=C(Nc1ccc2c(c1)CCC2)N1CCSCC1	-2.5	/
C=CCn1c(SCCOc2ccc(OC)cc2)nc2ccccc21	-0.24	0.01
CC1=C(c2ccc(F)cc2)S(=O)(=O)NC1=NCCCN1CCC(N2CCCCC2)CC1	/	1.6
CCn1nccc1C(=O)Nc1ccc(Cl)cn1	-1.9	-0.93
Cc1cccc(C(=O)N2N=C(C(F)(F)F)CC2(O)c2ccccc2)c1 (stereo not drawn)	-1.8	/
S=C(Nc1ccccc1)Nc1nccs1	-1	/
O=C1CCCN1CCCNc1nc2c(S(=O)(=O)c3ccccc3)nnn2c2ccc(Cl)cc12	-1.8	0.84
O=C(Cn1c(=O)sc2ccccc21)OCc1ccccc1	-2.2	0.3
CCOC(=O)CSc1n[nH]c(N)n1	0.43	0.85
O=C(Cn1nnc(-c2ccccc2)n1)N/N=C/c1ccc(-c2ccccc2C(=O)O)o1	1.6	/
CCOc1ccc(-c2noc(CSc3nnc(-c4ccncc4)n3-c3ccc(F)cc3)n2)cc1	0.11	2.8
OC(CN1CCC(Cc2ccc(F)cc2)CC1)c1ccc(Cl)cc1 (stereo not drawn)	1.9	/
Cc1ccc(-c2n[nH]c(=O)c3c2CCCC3)cc1S(=O)(=O)NC(C)C	-1.6	0.83
CO/N=C(\C(=O)NC1C(=O)N2C(C(=O)O)=C(CSc3nc(=O)c(O)nn3C)CS[C@H]12)c1csc(N)n1 (stereo partly drawn)	/	1.2
CCOC(=O)c1ccc(N2C(=O)c3n[nH]c(C)c3C2c2ccc(O)c(OCC)c2)cc1 (stereo not drawn)	/	1.4
CCCCOc1ccc(S(=O)(=O)N2CCC(C)CC2)cc1	-1.3	1.5
Cc1cccc(Nc2nc(N3CC(C)OC(C)C3)nc3c2cnn3C)c1 (stereo not drawn)	/	-0.79
c1ccc2cc3[nH]c(CN4CCOCC4)nc3cc2c1	-1.9	1.6
N#Cc1cn(-c2cccc(C(F)(F)F)c2)c(=O)n(Cc2ccc(Cl)cc2)c1=O	-1.3	/
CCOC(=O)CC(=O)c1[nH]c(C)c(C(=O)OCC)c1C	1.5	1.3
CCCC(=O)N(c1ccc2oc(=O)sc2c1)S(=O)(=O)c1ccc(OCC)cc1	-5.8	-0.07
CN(Cc1cc(=O)[nH]c2ccccc12)C(=O)c1cccs1	-2.1	0.07
Cc1ccc(CNS(=O)(=O)c2ccc(CCN3C(=O)c4cccnc4C3=O)cc2)cc1	/	0.86
COc1ccc(-n2ncc3c(NCCOCCO)ncnc32)cc1	/	1.9
CCCCC1COC(c2cccn2Cc2ccc(C)cc2)=N1 (stereo not drawn)	-0.66	1.6
COc1ccc(-n2c(=O)c(C#N)cc3c(=O)n4cc(C)ccc4nc32)cc1Cl	-0.13	0.89
CC1S/C(=N\C(=O)Nc2ccc(Cl)cc2)NC1=O (stereo not drawn)	0.57	-1.6
CC1CCc2c(sc3ncnc(SC(C)C(=O)O)c23)C1 (stereo not drawn)	-2.1	-0.32
CC1CCCCN1S(=O)(=O)c1ccc2c(c1)NC(=O)CS2 (stereo not drawn)	/	2.2
COc1cccc(C2=Nn3c(nnc3C3CCCCC3)SC2)c1	/	1.8
Cc1cc(C)c(Cn2c3ccccc3c3cnn(CC(=O)NCC4CCCO4)c(=O)c32)c(C)c1 (stereo not drawn)	-2.5	0.93
Cc1cc(Nc2ccc(F)c(F)c2)n2nc(Cc3cccc(F)c3)nc2n1	/	0.88
Cc1ccc2c(c1)N(C(=O)CSc1nc3ccccc3c(=O)[nH]1)CCO2	/	1.9
O=C1c2cccnc2C(=O)N1Cc1ccc(S(=O)(=O)Nc2ccccc2)s1	/	-0.25
CCOC(=O)C1CCN(S(=O)(=O)c2ccc3c(c2)OCC(C(=O)N2CCOCC2)O3)CC1 (stereo not drawn)	/	0.9
O=C(c1csc(S(=O)(=O)N2CCN(C(=O)c3ccco3)CC2)c1)N1CCCCC1	/	0.22
COC(=O)c1ccc(Cl)cc1N(Cc1c(F)cccc1Cl)S(C)(=O)=O	-0.95	/
COC(=O)c1ccc(C2C3=C(CC(C)(C)CC3=O)Nc3cc4c(cc32)OCO4)cc1 (stereo not drawn)	-7.6	1.4
CCCCNC(=O)NC1=C(C#N)C(CC)(CC)Cc2ccccc21	-1.3	2.4
Cn1nc(-c2cccnc2)[nH]c1=O	-1.1	/
Cn1cnc(S(=O)(=O)NC2CCCc3ccccc32)c1 (stereo not drawn)	/	1.9
O=C(NC1CCCCC1)c1cnn2c3c(cnc12)CCCCC3	/	0.21
O=C(NCC1CCCO1)c1ccc(Cn2c(=O)c3cccn3c3cccnc32)cc1 (stereo not drawn)	/	-1.1
O=C(C1CCC(CNc2c(N3CCCC3)c(=O)c2=O)CC1)N1CCN(c2ccc(Cl)cc2)CC1 (stereo not drawn)	/	2.2
COc1ccc(Cc2nc(-c3ccc(OC)c(OC)c3)no2)cc1OC	-3.4	-0.95
COc1ccc2[nH]c3c(N4CCCCC4)ncnc3c2c1	-2.3	/
O=c1c2ccccc2c(-c2ccccc2)nn1Cc1ccccc1	0.5	/
Cc1cc(S(=O)(=O)Nc2ccc3c(c2)n(C)c(=O)n3C)ccc1F	-0.22	-1.1
CSC(=N)n1nc(SC)nc1N	-0.86	/

Following part.
SMILES	CDC25B CDK2 inh	TAR Tat displ
O=C(NCc1ccccn1)c1cnc2sc(N3CCOCC3)nn2c1=O	/	0.68
O=C(c1cc2n(n1)C(C(F)(F)F)CC(c1ccc(Cl)cc1)N2)N1CCCC1 (stereo not drawn)	-2.6	1.6
Cn1c(=O)c2c(-c3ccccc3)n(-c3cc(Cl)ccc3O)cc2n(C)c1=O	-1	0.42
Cc1ccc(-n2nc(C(=O)O)c(C)c(C#N)c2=O)cc1Cl	-1.4	0.45
CCOC(=O)CSC1=C(C#N)C(c2ccc(C(C)C)cc2)CC(=O)N1 (stereo not drawn)	-0.82	0.35
Cc1cc(C)nc(NS(=O)(=O)c2ccc(Nc3nc(-c4ccc(F)cc4F)cs3)cc2)n1	-0.2	/
O=C(NCc1noc2ccccc12)N(Cc1ccco1)C1CCCCC1	/	-1.1
Cc1nc2nc(CO)[nH]n2c(=O)c1C	0.17	-1.6
CC1(C)Cc2cccc(OCCNS(=O)(=O)c3ccc(-n4cnnn4)cc3)c2O1	-2.4	1.1
O=C(Nc1c(F)cc(F)cc1Br)C1CC2CCCN2C12C(=O)Nc1ccccc12 (stereo not drawn)	/	-6.9
CCOC(=O)c1c(S(=O)(=O)Nc2ccc(F)c(Cl)c2)c(C)n(C)c1C	/	1.2
COc1ccc(Br)cc1S(=O)(=O)n1ccnc1	0.12	1.2
CC(=O)Nc1ccc(C2N=C(c3cnccn3)NN2)cc1 (stereo not drawn)	-1.4	/
CCN(CC)c1c(S(=O)(=O)c2ccc(OC)cc2)cnc2ccc(OC)cc12	0.96	0.65
CCc1cccc(C)c1NC(=S)NCCC(=O)O	-1.6	/
COc1ccc2c(c1)-c1nc(NC(=O)c3cccs3)sc1CC2	-0.63	/
COc1ccc(NC(=O)CCS(=O)(=O)c2ccc3c(c2)oc(=O)n3C)cc1OC	/	0.26
O=C(c1ccco1)N(Cc1nc(-c2ccc(Cl)cc2)no1)C1CCCCC1	0.46	1.3
Cc1nc2c(C)cccn2c(=O)c1NC(=O)CC1CCCCC1	/	1.2
COc1ccc(NC(=O)c2c(NC(=O)c3ccco3)sc3c2CCCCC3)cc1	-2.9	0.34

Reprinted from the part before: 7 compounds; new compounds follow.
SMILES	CDC25B CDK2 inh	TAR Tat displ
CCN(CC)c1c(S(=O)(=O)c2ccc(OC)cc2)cnc2ccc(OC)cc12	0.96	0.65
CCc1cccc(C)c1NC(=S)NCCC(=O)O	-1.6	/
COc1ccc2c(c1)-c1nc(NC(=O)c3cccs3)sc1CC2	-0.63	/
COc1ccc(NC(=O)CCS(=O)(=O)c2ccc3c(c2)oc(=O)n3C)cc1OC	/	0.26
O=C(c1ccco1)N(Cc1nc(-c2ccc(Cl)cc2)no1)C1CCCCC1	0.46	1.3
Cc1nc2c(C)cccn2c(=O)c1NC(=O)CC1CCCCC1	/	1.2
COc1ccc(NC(=O)c2c(NC(=O)c3ccco3)sc3c2CCCCC3)cc1	-2.9	0.34
CC(C)Cn1cc(NC(=O)NCc2cccs2)c2ccccc2c1=O	/	0.69
Cc1nc(-c2ccc(C)c(S(=O)(=O)Nc3ccc(C(C)C)cc3)c2)cs1	/	2.9
CCOC(=O)C1C(=O)CC(C)(O)C(C(=O)OCC)C1c1ccc(OCC)cc1 (stereo not drawn)	-1.4	0.78
Cc1cn2c(=O)cc(CSc3cccc(Cl)c3)nc2s1	/	1.4
CCOc1ccccc1Nc1cc(C)ncn1	1.1	0.91
CCOc1cccc2sc(N(CCN(CC)CC)C(=O)c3cccs3)nc12	/	2.5
COc1cc(NC(=O)c2ccc([N+](=O)[O-])o2)cc(C(F)(F)F)c1	0.59	/
O=[N+]([O-])c1ccc(C2=NN(c3ccccc3)C(c3ccco3)C2)cc1 (stereo not drawn)	-0.36	/
O=C(NCCc1ccccc1)N1c2ccccc2Sc2ccccc21	-0.23	-1
CC[n+]1c(/C=C/N(C)c2ccccc2)sc2ccc(OC)cc21	-1.9	0.37
Cc1nc2nncn2c(Nc2ccccc2)c1C	-1.2	0.63
Cc1c(C(=O)Nc2ccccc2F)sc2nc3n(c(=O)c12)CCC3	/	1.7
CSc1cccc(NC(=O)CSc2nnc3c4c5c(sc4ncn23)CCCC5)c1	-2.2	-1.3
O=C(CSc1ccc(-c2cccs2)nn1)N1CCCc2ccccc21	-0.97	0.72
CCOC(=O)c1sc(N2C(=O)c3oc4ccccc4c(=O)c3C2c2ccc(OCC)cc2)nc1C (stereo not drawn)	0.51	2.4
COC(=O)c1ccc(NC(C)=O)c(NC(C)=O)c1	-0.9	/
CC(=O)N1CCN(c2oc(/C=C/c3ccc(C)cc3)nc2C#N)CC1	-0.89	0.45
COc1ccccc1-c1cc(C(=O)N2CCOCC2)no1	-0.38	/
CCCC(C(=O)Nc1ccc2c(c1)OCO2)N1Cc2ccccc2C1=O (stereo not drawn)	/	0.11
Cn1c(=O)oc2cc(S(=O)(=O)CCC(=O)NCC3CCCO3)ccc21 (stereo not drawn)	/	-4.4
Cc1ccccc1Nc1ncnc2c1cnn2C	/	1.9
O=C(CCCN1C(=O)c2cccnc2Oc2ccccc21)NC1CCCCC1	/	-0.02
COC(=O)c1[nH]c(C(=O)OC)c(O)c1O	-1.4	/
CC1=C(C(=O)OCc2ccccc2)C(c2ccc(OCc3ccccc3)cc2)n2ncnc2N1 (stereo not drawn)	-0.46	0.26
Cc1ccc(S(=O)(=O)Cc2nc3sc(C)c(C)c3c(=O)[nH]2)cc1	0.34	0.09
Cc1cc2nc(SCC(=O)c3ccccc3)[nH]c2cc1C	-0.64	-0.7
Cc1noc(C)c1S(=O)(=O)NC1CCCc2ccccc21 (stereo not drawn)	2.2	/
O=c1[nH]c(SCCOc2ccc(Cl)cc2)nc2c1CCC2	-1.5	-0.45
COC(=O)c1cc(NC(=O)c2ccc([N+](=O)[O-])o2)ccc1N1CCOCC1	/	1.8

Entries of single compounds as entered above. Screens in order: CDC25B CDK2 inh	TAR Tat displ
Results for COC(=O)c1cc(NC(=O)c2ccc([N+](=O)[O-])o2)ccc1N1CCOCC1 : /	1.8
Results for O=C(CCCN1C(=O)c2cccnc2Oc2ccccc21)NC1CCCCC1 : /	-0.02
Results for CC1=C(C(=O)OCc2ccccc2)C(c2ccc(OCc3ccccc3)cc2)n2ncnc2N1 (stereo not drawn) : -0.46	0.26
Results for O=c1[nH]c(SCCOc2ccc(Cl)cc2)nc2c1CCC2 : -1.5	-0.45

Source: PubChem (Center for Chemical Genomics, University of Michigan)
